Ecoli growth: E. coli growth inhibition, primary screen, OD600 | Escherichia coli growth, 23 h; stronger effect = lower value | OD600 absorbance (no concentration beside the values) | 330,000 tested, 0.21% active;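 active means OD600 absorbance below the run mean of sample wells minus 3.6 SD, in any replicate, cut at about 0.56 in these data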;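 further: stock transfer was 300 nL into about 60 µL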
Vif TR-FRET: inhibitors of Vif binding to APOBEC3G peptide, primary screen, biochemical, TR-FRET, GST-Vif 1-94, biotin-A3G peptide, dose response retest (AID 1117319); inhibition, %; hits with a dose series show IC50 in µM; TR-FRET GST-Vif / biotin-A3G peptide binding; higher % means a stronger effect; test concentration not given here; strong numbers were not always called active; Virion infectivity factor (Human immunodeficiency virus type 1 group M subtype B (isolate …; 260,000 tested, 0.57% active;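 active means above the screen mean plus three standard deviations and confirmed in dose response; inconclusive means results disagree or hit not tested in dose response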;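 further: Vif residues 1-94 fused to GST binding biotinylated APOBEC3G peptide 110-148; 0% = full assay without inhibitor and 100% = GST in place of GST-Vif; retest series ran down from 100 µM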
FGF22 binding: binders of human FGF22 protein, primary screen, FGF22 synaptogenesis inhibitor project, biophysical, thermal shift, single point | 340,000 tested, 1.5% active | Fibroblast growth factor 22 (Homo sapiens), Q9HCT0 | AID 651658, 2012 | recombinant FGF22 thermal shift, SYPRO orange fluorescence; percent of sucrose octasulfate shift, DMSO zero | calls only at 9.99 µM;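 active means melting point raised past a set limit in the mean and every replicate; inconclusive means no clear call; three in four hits are not shown here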
Target sequence (Q9HCT0 whole entry, looked up): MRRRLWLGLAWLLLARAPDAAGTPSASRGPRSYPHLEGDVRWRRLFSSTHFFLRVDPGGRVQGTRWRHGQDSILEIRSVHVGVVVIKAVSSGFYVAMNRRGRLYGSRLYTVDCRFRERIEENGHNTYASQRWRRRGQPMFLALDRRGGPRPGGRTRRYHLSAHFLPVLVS
rRNA inh HTS: reduced GFP signal of wild-type E. coli, primary screen, bacterial rRNA inhibitor project, GFP/RFP fluorescence, OD600, single point | 350,000 tested, 1.6% active | E. coli WT GFP vs humanized-ribosome RFP mutants, 24 h; stronger effect = lower value; DMSO median 0, no signal -100 | AID 720706, 2013 | GFP signal change (wild-type ribosome), % (test concentration not listed);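 active means significant combined selectivity score with lowered wild-type GFP, culture density cut under 30%, mutant RFP and density less affected; inactive means any of these conditions unmet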; further: one replicate is shown; some compounds called inactive have numbers as strong as hits
MLL AF4-AF9 inh: inhibitors of AF4 peptide binding to AF9, primary screen, biochemical, AlphaScreen, biotin-AF4 peptide, FLAG-AF9, single point. Protein AF-9 (Homo sapiens), P42568. 350,000 tested, 0.47% active. inhibition, % at 10 µM;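 active means every replicate reaching a set inhibition limit, whatever the replicate mean, cut at about 25% in these data; inconclusive means mean inhibition reaches that limit but some replicates miss it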;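 further: 0% = plate neutral control median and 100% = total signal loss; the record names both 10 and 1 µM as test concentration; the first replicate is given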
Target sequence (P42568 whole entry, looked up): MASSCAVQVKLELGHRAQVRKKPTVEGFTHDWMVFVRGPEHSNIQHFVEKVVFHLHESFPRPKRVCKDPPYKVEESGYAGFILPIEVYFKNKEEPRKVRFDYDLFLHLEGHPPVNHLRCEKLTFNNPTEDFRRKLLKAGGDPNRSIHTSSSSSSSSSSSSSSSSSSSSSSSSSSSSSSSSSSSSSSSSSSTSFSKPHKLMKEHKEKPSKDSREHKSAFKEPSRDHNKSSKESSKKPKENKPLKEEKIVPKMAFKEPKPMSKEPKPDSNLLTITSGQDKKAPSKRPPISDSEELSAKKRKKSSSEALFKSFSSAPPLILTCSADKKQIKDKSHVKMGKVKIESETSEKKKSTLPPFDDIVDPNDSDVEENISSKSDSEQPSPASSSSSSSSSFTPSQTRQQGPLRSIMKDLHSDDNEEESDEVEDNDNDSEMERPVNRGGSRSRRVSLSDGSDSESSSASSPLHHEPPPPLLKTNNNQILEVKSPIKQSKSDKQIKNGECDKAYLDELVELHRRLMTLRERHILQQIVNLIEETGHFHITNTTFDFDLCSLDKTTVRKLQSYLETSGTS
ALR H2O2 inh: inhibitors of human ALR sulfhydryl oxidase, primary screen, biochemical, H2O2 detection, HRP-luminol luminescence, single point; FAD-linked sulfhydryl oxidase ALR (Homo sapiens), P55789; purified ALR, DTT oxidation; inhibition, % (test concentration not listed); 290,000 tested, 3.8% active; AID 485317, 2010;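 active means mean and each replicate at 75% or more; inconclusive means only one of the two met; inactive means neither met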;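 further: stock transfer was 7.5 nL into about 7.5 µL; 0% = neutral wells and 100% = wells with inactivated enzyme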
Target sequence (P55789 whole entry, looked up): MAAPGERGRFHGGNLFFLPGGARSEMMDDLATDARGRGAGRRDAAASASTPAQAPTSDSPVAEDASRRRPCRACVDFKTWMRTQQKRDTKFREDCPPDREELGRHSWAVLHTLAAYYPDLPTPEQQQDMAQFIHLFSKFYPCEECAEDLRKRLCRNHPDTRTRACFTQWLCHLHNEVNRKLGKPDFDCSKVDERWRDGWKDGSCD
HNF4A DNA FP: change in binding of human HNF4A to DNA, primary screen, biochemical, fluorescence polarization, FITC-DNA. 1 h. activity change, % at 10 µM. 360,000 tested, 0.3% active. AID 1224865, 2016; in the data active means activity change above about 30%, passing the limit was not always enough;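 further: controls were the assay level and a saturating level of protein; the project sought stronger binding though the title names inhibitors; some compounds called inactive have numbers as strong as hits; positive values seem to mean higher polarization but the record does not say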
rRNA inh HTS OD600: also measured in rRNA inh HTS; calls as there; OD600 change, %; measured here: OD600 growth;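 optical density of the mix in the first replicate; 0 = DMSO median and -100 = no signal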
rRNA inh HTS RFP: recorded beside rRNA inh HTS, whose call it bears; RFP signal change, %; measured here: RFP humanized mutant strains;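 first replicate; 0 = DMSO median and -100 = no signal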
The depositor's hits bear a star; i = inactive; u = inconclusive; x = no result given; & = joins results of further samples. An excerpt; rates above refer to the full screens.

SMILES | Ecoli growth | Vif TR-FRET | FGF22 binding | rRNA inh HTS | rRNA inh HTS OD600 | rRNA inh HTS RFP | MLL AF4-AF9 inh | ALR H2O2 inh | HNF4A DNA FP
C[C@@H]1CN([C@@H](C)CO)C(=O)c2cc(NC(=O)Cn3cnnn3)ccc2O[C@@H]1CN(C)C(=O)Nc1ccccc1 | x | x | i | 4 | 12 | -0.3 | -1.6 | x | x
COc1ccccc1N1CCN(c2ccc([N+](=O)[O-])nc2)CC1 | 0.7 | 5% | i | 10 | 15 | 0.1 | 0.3 | 0 | -2.4
CC1(C)CC(=O)C(C(C2=C(O)CC(C)(C)CC2=O)c2ccc(O)c([N+](=O)[O-])c2)=C(O)C1 | 0.68 | -11% | x | 10 | 15 | -4.0 | -0.5 | 97* | 4.1
CCN(CC)c1ccc(C=Nc2ccccc2C)c(O)c1 | 0.67 | -5% | i | 17 | 18 | 2.4 | -11 | 6 | -8.2
CS(=O)(=O)c1ccccc1-c1nnc(NC(=O)c2ccco2)o1 | 0.68 | 1% | i | 7 | 0 | -1.5 | 5.1 | x | 1.8
C=CCn1c2ccccc2c2nnc(SCC(=O)Nc3cc(C)on3)nc21 | 0.84 | -8% | x | x | x | x | x | x | -3.0
N#Cc1cnn(-c2ncnc3sc(-c4ccccc4)cc23)c1N | 0.68 | 22% | x | x | x | x | x | x | 4.9
COc1ccccc1CCc1nnc(CCC(=O)NCCCOc2cccnc2)o1 | 0.72 | u | i | -1 | 4 | 1.4 | -0.9 | -4 | 0.1
CC(C)c1nnc(NC(=O)CCC(=O)NC2CCCCCC2)s1 | 0.69 | -1% | i | 5 | 10 | 0.3 | -7.1 | -1 | 1.4
O=C(C[C@@H]1C[C@H]2c3cc(NC(=O)NC4CCCC4)ccc3O[C@H]2[C@H](CO)O1)NCc1ccccc1F | x | x | i | -8 | -9 | 0.8 | 2.9 | x | x
C[C@@H]1CN([C@H](C)CO)C(=O)c2cc(NC(=O)CCCN(C)C)ccc2O[C@@H](C)CCCCO[C@@H]1CN(C)CC1CCCCC1 | x | x | i | 3 | 3 | 3.4 | -1.4 | x | x
Cc1ccc(-n2nnnc2SC(C)C(=O)Nc2ccc(Cl)cn2)cc1 (centres undefined) | 0.68 | 21% | x | x | x | x | x | 3 | -0.2
Fc1ccc(OCc2nc(-c3cccs3)no2)cc1 | 0.7 | x | i | -11 | -8 | -0.2 | -3.5 | -2 | -1.1
CN(C(=O)COC(=O)CNC(=O)c1ccccc1Cl)c1ccccc1 | 0.71 | 0% | i | 21 | -5 | 2.6 | 0.0 | 7 | 2.7
O=C1OC(/C=C/c2ccccc2)=NC/1=C/C=C/c1ccccc1 | 0.68 | -7% | x | x | x | x | x | 4 | -0.9
CC(C)NC(=O)CCS(=O)(=O)c1ccc(Br)s1 | 0.68 | -4% | x | x | x | x | x | -1 | -4.8
O=[N+]([O-])c1ccc(Sc2ccccc2Cl)nc1 | 0.67 | 21% | x | x | x | x | x | -3 | -1.4
COc1ccc(S(=O)(=O)Nc2cccc3c2O[C@@H](CN(C)Cc2ccc(C(=O)O)cc2)[C@@H](C)CN([C@H](C)CO)C3=O)cc1 | 0.79 | x | i | 7&15 | 10&17 | -2.0&-0.6 | -2.7 | 1 | 4.7
Cc1noc(C)c1S(=O)(=O)Nc1ccc2c(c1)CC(=O)N([C@@H](C)CO)C[C@@H](C)[C@H](CN(C)S(=O)(=O)c1ccccc1)O2 | x | x | i | -4 | -8 | -0.3 | -3.4 | x | x
Cc1cc(NCc2ccccc2)nc(-c2ccccc2O)n1 | 0.65 | -5% | x | -54 | -81 | -14 | x | -10 | 6.8
O=C1CCC(C(=O)OCC(=O)Nc2cc(Cl)ccc2F)=NN1 | 0.65 | -4% | i | 6 | 8 | -4.1 | -3.0 | 0 | -0.6
CCOc1ccc(NS(=O)(=O)c2ccc(-c3cnc(C4CC4)o3)cc2)cc1 | 0.71 | x | i | -37 | -65 | 6.4 | -1.1 | -3 | 1.3
Cc1nc2ccccn2c1C(=O)N=Nc1c(O)[nH]c2ccccc12 | 0.66 | 0% | x | x | x | x | x | 10 | -0.5
N#Cc1ccsc1NC(=O)c1ccc(Cl)c([N+](=O)[O-])c1 | x | x | i | 17 | 6 | 3.8 | u | x | 4.8
CCCS(=O)(=O)N1CCCC(C(=O)N2CCN(c3ccccc3)CC2)C1 (centres undefined) | 0.75 | 1% | x | x | x | x | x | 40 | -0.2
O=C(NCCOc1ccc(F)cc1)C1CCC(=O)N(CCc2ccccn2)C1 (centres undefined) | 0.71 | -2% | i | 4 | 8 | 0.5 | -0.9 | 2 | 1.0
COc1ccc(-c2ccc3c(c2)c(Sc2ccccc2)c(-c2ccccc2)n3C)cc1 | x | x | i | 32 | 16 | 6.1 | -3.4 | x | -0.4
CO[C@H]1CC[C@H]2CCN(C)C(=O)[C@@H](C)[C@@H](OC)CN(C)C(=O)c3cc(C#N)ccc3OC[C@@H]1O2 | x | x | i | 6 | 10 | -1.1 | 7.9 | x | x
Cc1cc(=O)[nH]c(SCc2cccc(Br)c2)n1 | 0.66 | 14% | x | x | x | x | x | -16 | -0.4
CC#CC(=O)NC1CCCN(C2Cc3ccccc3C2)C1 (centres undefined) | 0.69 | x | i | -1 | 11 | 0.3 | 0.9 | -15 | 2.3

2 entries from above, tab-delimited.
smiles	Ecoli growth	Vif TR-FRET	FGF22 binding	rRNA inh HTS	rRNA inh HTS OD600	rRNA inh HTS RFP	MLL AF4-AF9 inh	ALR H2O2 inh	HNF4A DNA FP
CO[C@H]1CC[C@H]2CCN(C)C(=O)[C@@H](C)[C@@H](OC)CN(C)C(=O)c3cc(C#N)ccc3OC[C@@H]1O2	x	x	i	6	10	-1.1	7.9	x	x
COc1ccc(-c2ccc3c(c2)c(Sc2ccccc2)c(-c2ccccc2)n3C)cc1	x	x	i	32	16	6.1	-3.4	x	-0.4

(next part)
SMILES | Ecoli growth | Vif TR-FRET | FGF22 binding | rRNA inh HTS | rRNA inh HTS OD600 | rRNA inh HTS RFP | MLL AF4-AF9 inh | ALR H2O2 inh | HNF4A DNA FP
CC(=O)N1[C@@H]2Cn3c(ccc(-c4ccncc4)c3=O)[C@H]1[C@@H](C(=O)NC1Cc3ccccc3C1)[C@@H]2CO | x | x | i | 4 | -3 | -0.2 | -6.0 | x | x
CCOCCCNc1nc(C(F)(F)F)nc2c1nnn2Cc1ccccc1Cl | 0.7 | -3% | i | -6 | 0 | 1.3 | 0.7 | 6 | -2.8
CC(C)(C)c1nnc2sc(SCC(=O)c3ccc4c(c3)OCCO4)nn2c1=O | 0.68 | -38% | i | -2 | 7 | -1.4 | 1.6 | x | 1.1
O=C(CN1CCN(S(=O)(=O)c2ccccc2F)CC1)N1CCc2ccccc2C1 | 0.64 | 0% | i | 7 | 6 | 3.3 | 13 | -1 | -1.0
COc1c(F)c(F)c(C(=O)Nc2ccc(NC(=O)c3ccco3)cc2)c(F)c1F | 0.8 | -5% | x | x | x | x | x | -10 | 3.8
CCN(CC(=O)Nc1ccc(S(N)(=O)=O)cc1)S(=O)(=O)c1cc(C)ccc1OC | 0.75 | -2%&0% | x | x | x | x | x | -5 | 0.9
Cc1cccnc1NC(=O)C(C)Oc1ccccc1 (centres undefined) | 0.7 | 1% | x | x | x | x | x | -4 | 3.0
O=C(NCC(=O)N1CCN(C(=O)c2ccccc2)CC1)c1ccccc1 | 0.68 | x | i | 7 | 18 | 0.6 | 2.8 | -2 | -1.2
O=C(c1ccco1)N1CCN(c2ncccn2)CC1 | 0.67 | 6% | i | 7 | 11 | -7.4 | 8.3 | x | -0.8
COC(=O)c1ccc(COc2ccc(C3C4=C(CCCC4=O)Nc4onc(C)c43)cc2)cc1 (centres undefined) | 0.73 | 1%&2% | x | x | x | x | x | 26 | -2.2
Cc1ccc(NC2=C(Cl)C(=O)OC2OC(=O)c2ccco2)cc1 (centres undefined) | 0.67 | 0% | i | 2 | 2 | -1.2 | -5.8 | 68 | 2.7
CC1=C(C(=O)N2CCCCCC2)CC(CC(=O)NC(c2ccccc2)c2ccccc2)C(=O)N1Cc1ccccc1 (centres undefined) | x | x | i | -13 | -16 | -1.6 | 2.2 | x | 1.2
O=C(CN1CCCCCC1)NCCc1ccc(F)cc1 | 0.67 | -2% | i | 8 | 6 | -1.0 | 6.9 | -18 | -0.1
Cc1ccc(-n2c(=O)c3sccc3n(CC(=O)NC3CCCCC3)c2=O)cc1 | 0.71 | -15% | i | 10 | 12 | 0.2 | -9.3 | -4 | 4.1
CCCC/C(C)=N/NC(=O)CN(c1ccc(Br)cc1)S(=O)(=O)c1ccccc1 | x | -1% | x | x | x | x | x | -5 | 0.4
Cn1c(Cn2nnc(-c3ccccc3)n2)nnc1SCc1ccccc1Cl | 0.67 | 0% | x | x | x | x | x | 0 | 0.7
CCOc1ccc(S(=O)(=O)NNC(=O)c2cc3ccccc3o2)cc1 | 0.65 | -6% | x | x | x | x | x | 29 | -0.6
Cc1cc(=O)n(CC(=O)O)c2ccccc12 | 0.68 | 6% | i | 13 | 14 | 2.8 | -1.5 | 11 | -1.6
Cc1ccc(S(=O)(=O)CCN2CCC(O)(c3ccccc3)CC2)cc1 | 0.67 | 3% | i | 8 | 4 | -0.8 | -0.7 | 0 | 1.1
CCc1ccc(C2=NN(c3ccc(S(N)(=O)=O)cc3)C(c3ccc(F)cc3)C2)cc1 (centres undefined) | 0.74 | 14% | x | x | x | x | x | -3 | 9.5
CCOC(=O)[C@H]1[C@H]2COc3ccc(OC)cc3[C@H]2N2C(=O)CNC(=O)[C@@]12C | x | x | i | 6 | 1 | -0.4 | -0.3 | -4 | -2.0
CO[C@@H]1CN(C)C(=O)c2ccc(NS(=O)(=O)c3cccc(F)c3)cc2OC[C@H](C)NC[C@@H]1C | x | x | i | 1 | 0 | -1.7 | -2.9 | x | x
Cc1ccc(NC(=O)c2ccc(Cl)c(N3C(=O)C=CC3=O)c2)cc1 | 0.71 | 81µM* | x | x | x | x | x | x | 2.6
Cc1nn(CC(=O)NCc2ccccc2F)c(C)c1[N+](=O)[O-] | 0.68 | 3% | i | x | x | x | -1.0 | -9 | -0.9
CCOc1ccccc1C(=O)NCC(=O)NCCc1ccc(S(N)(=O)=O)cc1 | 0.67 | 1% | i | 10 | 6 | 1.5 | -0.6 | -4 | -1.0
COc1ccc(C(=O)Nc2ccncc2)cc1[N+](=O)[O-] | 0.67 | x | i | 9 | 11 | 0.0 | -2.0 | 5 | 3.3
C[C@@H]1CN([C@@H](C)CO)C(=O)c2cc(C#CC(C)(C)O)cnc2O[C@H]1CN(C)C(=O)CC1CC1 | x | x | i | 5 | 12 | -2.7 | -5.3 | x | x
CCOc1ccc(NC(=S)NC(=O)c2c(Br)cnn2C)c([N+](=O)[O-])c1 | 0.7 | u | x | x | x | x | x | 0 | -0.5
CCc1ccc(C(=O)NNC(=O)CCC2CCCCC2)cc1 | 0.63 | -12% | i | 5 | 3 | -3.5 | -5.4 | -3 | 1.6
Cc1cc(OC(=O)c2cc(Br)ccc2Cl)c([N+](=O)[O-])c(=O)[nH]1 | 0.71 | x | i | 3 | 6 | -1.7 | -3.4 | -2 | -1.6
COc1ccc2c3c(n(C)c2c1)[C@H](CO)N(C(C)=O)CC31CN(C(=O)C2CC2)C1 | x | x | i | 2 | 13 | -1.9 | -1.4 | x | x

Screening data (PubChem BioAssay)
